Compound activity (PubChem BioAssay)
Rce1 inh = blocks yeast Ras-converting enzyme; yeast membranes, quenched prenylated peptide cleavage fluorescence; AID 2563; calls only; 0.27% of 290,000 active;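 active means fall in fluorescence gain of 50% or more versus controls, with final raw signal at or below 3038400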;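 further: plate controls were neutral control wells for no effect and wells lacking membranes for full effect; tested at 10 µM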
Target sequence (Q03530 whole entry, looked up): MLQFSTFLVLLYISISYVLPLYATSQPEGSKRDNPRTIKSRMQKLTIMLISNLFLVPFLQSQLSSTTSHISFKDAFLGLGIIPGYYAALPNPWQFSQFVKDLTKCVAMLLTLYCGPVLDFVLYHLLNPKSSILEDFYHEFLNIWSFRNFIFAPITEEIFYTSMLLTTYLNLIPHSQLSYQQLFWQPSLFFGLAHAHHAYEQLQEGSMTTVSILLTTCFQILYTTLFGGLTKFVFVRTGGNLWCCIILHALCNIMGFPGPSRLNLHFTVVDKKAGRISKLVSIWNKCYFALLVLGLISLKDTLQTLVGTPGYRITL
MT1-MMP act inh = blocks activation of human MT1-MMP; P50281; HT1080 RFP-PRO-GFP cells, GFP/RFP ratio fluorescence, overnight; percent of plate control window, DMSO zero; GFP/RFP ratio change, % at 20 µM; 0.061% of 360,000 active;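 active means GFP/RFP ratio change of at least 30% with cell ATP level not reduced by more than half and red fluorescence within 50% of control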; further: strong numbers were not always called active
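Read-out: GFP/RFP fluorescence ratio; Test system: RFP-PRO-GFP reporter HT1080 cells; Compound dosing: single-point 20 µM compound, 1% DMSO; Times: overnight compound exposure at 37 °C.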
CSC inhib = blocks cancer stem cells | cancer stem cell-like cells viability, luminescence | inhibition, % at 7.5 µM | 1.1% of 300,000 active;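 active means mean at 75% or more and at least half the replicates too; tested in HMLE shEcad cells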;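 further: 0% = median of negative and 100% = median of positive control wells; the first replicate is given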
PABP polyA inh = blocks human PABP binding to poly(A) RNA. P11940. fluorescence polarization. inhibition, % at 35 µM. 1% of 290,000 active;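 active means 50% or more with normal probe brightness, or confirmed in later tests; about a fifth of its hits are not listed in these tables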;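 further: calls also rest on retests at 20 µM and on dose response follow-up; controls were probe without protein and protein plus probe with vehicle; some compounds called inactive have numbers as strong as hits; many hits fall short of the cut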
Target sequence (P11940 whole entry, looked up): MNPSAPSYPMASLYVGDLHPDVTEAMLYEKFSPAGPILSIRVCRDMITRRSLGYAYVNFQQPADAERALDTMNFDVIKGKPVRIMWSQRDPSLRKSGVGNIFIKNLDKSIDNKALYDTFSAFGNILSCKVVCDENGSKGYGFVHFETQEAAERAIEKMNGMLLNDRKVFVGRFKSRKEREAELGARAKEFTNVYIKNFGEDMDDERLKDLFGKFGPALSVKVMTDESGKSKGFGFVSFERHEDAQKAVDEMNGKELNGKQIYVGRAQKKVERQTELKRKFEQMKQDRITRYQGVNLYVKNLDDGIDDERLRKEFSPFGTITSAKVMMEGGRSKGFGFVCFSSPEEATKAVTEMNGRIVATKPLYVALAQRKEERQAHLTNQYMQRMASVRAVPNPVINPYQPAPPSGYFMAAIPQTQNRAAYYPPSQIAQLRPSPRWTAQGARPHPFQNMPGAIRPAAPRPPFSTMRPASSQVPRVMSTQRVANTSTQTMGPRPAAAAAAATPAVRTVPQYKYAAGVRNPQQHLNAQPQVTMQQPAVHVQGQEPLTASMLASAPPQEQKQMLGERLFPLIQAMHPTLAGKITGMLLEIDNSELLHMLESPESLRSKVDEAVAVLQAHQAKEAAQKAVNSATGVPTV
HIV Env fusion = blocks HIV Env-driven cell-cell fusion; HeLa-JRFL Env/CEM21 cell fusion, luciferase; inhibition, % at 12.3 µM; 1.1% of 360,000 active; AID 651610;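 active means mean replicate inhibition score of at least 50 and every replicate individually at or above 50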;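 further: 0% = plate neutral controls and 100% = maraviroc near 300 nM; one replicate is shown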
eIF4H inh = inhibitors of RNA binding by human eIF4H; Q15056; eIF4H fluorescence polarization binding assay; 0.94% of 290,000 active; inhibition, % at 35 µM;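 active means 50% or more with normal probe brightness, or confirmed in later tests; about a fifth of its hits are not listed in these tables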;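 further: calls also rest on retests at 20 µM and on dose response follow-up; 0% = protein and probe with vehicle and 100% = probe without protein; strong numbers were not always called active; many hits fall short of the cut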
UUG fidelity = alters start codon recognition fidelity in yeast. S. cerevisiae UUG-firefly luciferase reporter, luminescence/redox ratio. activity score, % at 18.7 µM. 0.13% of 350,000 active;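 active means replicate mean at a twofold rise or more, about +100% in these data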;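 further: firefly luciferase made from a UUG start codon reports start codon fidelity; reporter light over untreated wells divided by growth signal over untreated wells; some hits fall short of that in this replicate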
eIF4H inh retest = second read-out of eIF4H inh, no call of its own (marks repeat the call); inhibition, %; compound at 20 µM; confirmation average;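 mean of two retest wells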
PABP polyA inh retest = further read-out of PABP polyA inh, marked with its call; inhibition, %; compound at 20 µM; confirmation repeats;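 mean of two retest wells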
MT1-MMP act inh RFP = also measured in MT1-MMP act inh; calls as there; RFP signal change, %; measured here: RFP expression control read;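 0 = vehicle wells; hits needed this value within 50% of zero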
Active calls of the source: *; i = inactive; . = no result given.

SMILES | Rce1 inh | MT1-MMP act inh | MT1-MMP act inh RFP | CSC inhib | PABP polyA inh | HIV Env fusion | eIF4H inh | UUG fidelity | others
COc1cccc(CN2CC(C(=O)NC3CCC(O)CC3)CCC2=O)c1 (centres undefined) | i | 2 | 3 | -3 | -8 | . | 0 | -16
Cc1ccc(-c2nnc(SCC(=O)Nc3ccc4c(c3)OCCO4)n2N)cc1 | . | 0 | 1 | -5 | -3 | . | -8 | -13
CN1CCC(N(C)CC(O)c2ccccc2)CC1 (centres undefined) | i | 0 | -1 | -4 | -10 | -3 | 14 | -15
CN1CCN(C(=O)c2cnn3c2NC(c2ccccc2)CC3C(F)(F)F)CC1 (centres undefined) | i | 6 | 3 | -1 | -2 | 4 | -4 | 1
Cc1occc1C(=O)NCc1ccccc1 | i | 9 | 4 | -9 | 10 | . | 2 | 2
CCSc1nc2ccccc2n1CC(N)=O | i | 3 | 6 | 3 | 0 | -45 | -1 | 15
CCOC(=O)[C@H]1[C@H]2COc3ccc(OC)cc3[C@@H]2N2C(=O)c3cc(F)c(F)cc3NC(=O)[C@@]12C | . | -7 | -2 | -8 | . | -2 | . | 5
O=C(CSc1ccc2nnc(-c3ccccc3)n2n1)N1CCCc2ccccc21 | i | 0 | -2 | 7 | -7 | 11 | 0 | -7
COc1ccc(C2N(c3ccc4c(c3)OCCO4)C(=O)C2(F)F)cc1OC (centres undefined) | i | 3 | 3 | -12 | -2 | -3 | -3 | .
CC(=O)NC1=NC(=O)/C(=C/N2CCOCC2)S1 | i | 9 | 7 | -12 | 0 | . | -4 | -8
Cc1ccc(S(=O)(=O)N/N=C\c2cc3c(cc2[N+](=O)[O-])OCO3)cc1 | i | -2 | 2 | -6 | 23 | . | 24 | -22
Cc1ccc(NC(=O)CSc2nnc(-c3cc(C)[nH]n3)n2N)c(C)c1 | i | 0 | 9 | 1 | 3 | 14 | -2 | -13
COc1ccc(-c2csc(NC(=O)CN3C(=O)C4CCCCC4C3=O)n2)c(OC)c1 (centres undefined) | i | 7 | -2 | -11 | . | -4 | . | -4
CCn1ccnc1CN1CCC(n2nccc2NC(=O)CCc2ccccc2)CC1 | i | 1 | 5 | -3 | 2 | -9 | -2 | -24
O=[N+]([O-])c1ccc(-c2cn(-c3ccccc3F)c(=S)[nH]2)cc1 | i | 3 | 1 | -12 | -14 | -2 | 38 | .
O=C(CN1C(=O)COc2ccccc21)N1CCN(C2CCCCC2)CC1 | i | 0 | 3 | . | -5 | -15 | -7 | -21
O=C(O)CSCC(=O)N(c1ccccc1)c1ccccc1 | i | 2 | 1 | -12 | 4 | 15 | 4 | -16
Cc1ccc(OCC(=O)Nc2ccc3c(c2)CCC3)c([N+](=O)[O-])n1 | i | -2 | -3 | -6 | 10 | 4 | 0 | -3
Cn1ncc(Br)c1C(=O)N1CCN(C(=O)c2ccco2)CC1 | i | 2 | -1 | 1 | 5 | -1 | -1 | 16
O=C(OCCCc1cc2ccccc2c(=O)o1)c1ccc(C(F)(F)F)cc1 | . | 1 | 4 | -4 | . | -4 | . | -11
C/C=C(/C)C(=O)Nc1cccc(C2=NOC3(C2)C[C@H](C(N)=O)N(C(=O)Cc2ccc([N+](=O)[O-])cc2)C3)c1 (some centres undefined) | i | 1 | -2 | -11 | -3 | 25 | 5 | -11
C/C(CC(=O)N1CCN(C=O)CC1)=N\NC(=O)c1ccc(Cl)cc1 | i | -3 | 3 | . | -2 | 10 | -2 | .
COc1cccc(NC(=O)CSc2nc3ccccc3c(=O)n2CCCC(=O)NCC2CCCO2)c1 (centres undefined) | i | -8 | -4 | -4 | -3 | 14 | 6 | -4
COc1ccccc1C(CC(=O)Nc1nccs1)c1ccco1 (centres undefined) | i | -2 | 2 | 6 | 6 | . | 73 | 0 | eIF4H inh retest=1;PABP polyA inh retest=-6

A portion from further up, for reference:
SMILES | Rce1 inh | MT1-MMP act inh | MT1-MMP act inh RFP | CSC inhib | PABP polyA inh | HIV Env fusion | eIF4H inh | UUG fidelity | others
O=C(OCCCc1cc2ccccc2c(=O)o1)c1ccc(C(F)(F)F)cc1 | . | 1 | 4 | -4 | . | -4 | . | -11
C/C=C(/C)C(=O)Nc1cccc(C2=NOC3(C2)C[C@H](C(N)=O)N(C(=O)Cc2ccc([N+](=O)[O-])cc2)C3)c1 (some centres undefined) | i | 1 | -2 | -11 | -3 | 25 | 5 | -11
C/C(CC(=O)N1CCN(C=O)CC1)=N\NC(=O)c1ccc(Cl)cc1 | i | -3 | 3 | . | -2 | 10 | -2 | .
COc1cccc(NC(=O)CSc2nc3ccccc3c(=O)n2CCCC(=O)NCC2CCCO2)c1 (centres undefined) | i | -8 | -4 | -4 | -3 | 14 | 6 | -4

Next results follow:
SMILES | Rce1 inh | MT1-MMP act inh | MT1-MMP act inh RFP | CSC inhib | PABP polyA inh | HIV Env fusion | eIF4H inh | UUG fidelity | others
COC(C[C@H]1O[C@H]1[C@@H](O)[C@H](C)OCc1ccccc1)OC | i | 8 | 5 | . | -2 | -6 | -6 | -15
Clc1ccc(OCCn2cnc(Cl)c2Cl)cc1 | i | -1 | -5 | -15 | -11 | -11 | -1 | -22
CC1(C)CC(N(Cc2ccccc2)C(=O)Cc2ccccc2)CCO1 (centres undefined) | i | 1 | 2 | 6 | 10 | 20 | 6 | -2
COc1ccc(OC)c(/C=C/C(=O)OCC(=O)NCc2ccco2)c1 | . | 1 | -1 | -1 | . | . | . | -11
Cn1cccc1Cc1nnc(SCC(=O)N2CCN(c3ccccc3)CC2)n1-c1ccc(F)cc1 | i | 2 | -3 | 26 | -4 | -16 | -10 | 0
COCc1ccccc1C1=CC(=O)C[C@H](c2ccc(OC)cc2)C1 | . | 7 | -5 | 21 | . | -10 | . | -13
COc1ccc(/C=N/NC(=O)CCc2c(C)n[nH]c2C)cc1O | i | 2 | 3 | 2 | -6 | -9 | 7 | -8
CCOC(=O)c1c(C)[nH]c(C)c1-c1ccccc1OC | i | 6 | 3 | -2 | -15 | . | 4 | -12
COc1ccc(Nc2nc(C)cc(C)c2C(N)=O)cc1OC | . | 0 | 1 | -7 | 8 | -3 | -6 | -17
Cc1nnc(SCC(=O)NCCN2C(=O)CSC2=O)s1 | i | 5 | 8 | 1 | 0 | 21 | 3 | -13
c1ccc(Cn2nnc3c(N4CCc5ccccc5C4)ncnc32)cc1 | i | 2 | -2 | 66 | -1 | 23 | -12 | -11
O=C(CCN1C(=O)C2CCCCC2C1=O)Nc1cc([N+](=O)[O-])ccc1Cl (centres undefined) | . | -2 | 0 | 8 | . | . | . | -13

In the list so far, 2 have a CF3 group.
SMILES | Rce1 inh | MT1-MMP act inh | MT1-MMP act inh RFP | CSC inhib | PABP polyA inh | HIV Env fusion | eIF4H inh | UUG fidelity | others
CN1CCN(C(=O)c2cnn3c2NC(c2ccccc2)CC3C(F)(F)F)CC1 (centres undefined) | i | 6 | 3 | -1 | -2 | 4 | -4 | 1
O=C(OCCCc1cc2ccccc2c(=O)o1)c1ccc(C(F)(F)F)cc1 | . | 1 | 4 | -4 | . | -4 | . | -11

Reprinted at random: two records from the list
SMILES | Rce1 inh | MT1-MMP act inh | MT1-MMP act inh RFP | CSC inhib | PABP polyA inh | HIV Env fusion | eIF4H inh | UUG fidelity | others
COC(C[C@H]1O[C@H]1[C@@H](O)[C@H](C)OCc1ccccc1)OC | i | 8 | 5 | . | -2 | -6 | -6 | -15
Clc1ccc(OCCn2cnc(Cl)c2Cl)cc1 | i | -1 | -5 | -15 | -11 | -11 | -1 | -22

The list continues.
SMILES | Rce1 inh | MT1-MMP act inh | MT1-MMP act inh RFP | CSC inhib | PABP polyA inh | HIV Env fusion | eIF4H inh | UUG fidelity | others
Cc1ccc2c(c1)=N/C(=N\c1[nH]c(O)c3ccccc13)N=2 | . | -6 | -1 | . | . | 10 | . | -36
COc1ccc(CNC(=O)C2CCNCC2)cc1 | i | -5 | 1 | -17 | -1 | -5 | -8 | -6
COc1ccccc1NC(=O)Cn1cc(C(=O)c2ccco2)c2ccccc21 | i | 2 | -2 | -11 | -3 | -1 | -10 | 4
COc1ccc(CCNC(=O)CSc2nnc(-c3cccc(F)c3)o2)cc1OC | i | 1 | -2 | . | -17 | . | -8 | 12
CN(Cc1ccccc1)S(=O)(=O)c1nnc(NC(=O)c2ccccc2)s1 | i | -1 | 2 | 37 | -10 | -5 | -4 | -19
CCOc1ccccc1OCCCC(=O)N1CCN(S(=O)(=O)c2ccccc2C#N)CC1 | . | -1 | 1 | . | . | -18 | . | -6
COc1ccc(NC(=O)COC(=O)c2cc(=O)c3ccccc3o2)cc1OC | . | 4 | 5 | -26 | . | . | . | -7
Cc1ccc(Cn2ncc3c(N4CCCC4)ncnc32)cc1 | i | -4 | 0 | -9 | 3 | . | 0 | -10
COc1ccccc1C(=O)n1nc(-c2ccco2)nc1N | i | 0 | 1 | . | 7 | . | 0 | -18
O=C(NCCc1ccccc1)c1ccc(-c2ccccc2Cl)o1 | i | -5 | 0 | 7 | 0 | -27 | -1 | 13
O=C1c2cccnc2C(=O)N1Cc1ccc(Cl)cc1 | i | -2 | 2 | -3 | 5 | -10 | 2 | -9
COc1ccc(NS(=O)(=O)c2cc(NC(=O)c3ccc(=O)[nH]n3)ccc2N2CCOCC2)cc1 | . | -4 | -3 | . | . | -19 | . | 2
C/C(N)=C(/C#N)C(=O)CSc1n[nH]c(-c2cccs2)n1 | i | 1 | 0 | -27 | -3 | -4 | 3 | -12
Cc1cc(C(C#N)c2ccc(Cl)cc2)c(Cl)cc1NC(=O)c1cc(I)cc(I)c1O (centres undefined) | i | 7 | -34 | 96* | . | 3 | . | -18
COc1cccc(CN2CCN(Cc3ccc(O)cc3)CC2CCO)c1 (centres undefined) | i | 0 | 6 | 9 | -1 | -13 | -11 | .
COc1cc2[nH]ccc(=O)c2cc1OC | i | 3 | 6 | 0 | -2 | -31 | 2 | -5
O=C(NC1CCCCC1)N1CCCC(c2nc3ccccc3[nH]2)C1 (centres undefined) | i | 7 | 4 | -18 | -15 | -26 | -2 | -4
CC(=O)Nc1nc2c(c3c1c(=O)oc1ccccc13)CCCCC2 | i | . | . | -9 | -2 | . | -2 | .
COc1ccc(C(=O)N2CCCC(Nc3ccc(C)c(C)c3)C2)cc1 (centres undefined) | i | 3 | 1 | -24 | 7 | -2 | 1 | -17
CC(=O)Nc1ccc(S(=O)(=O)N(C)Cc2cnn(C)c2)cc1 | i | 0 | 0 | -1 | -9 | -3 | -5 | 4
O=C1CCc2cc(S(=O)(=O)Nc3ccc(C(F)(F)F)cc3)cc3c2N1CC3 | i | 6 | -3 | 8 | . | 7 | . | 11
CC(C)CC(NC(=O)C1CCC(C)CC1)C(=O)Nc1cccnc1 (centres undefined) | i | -18 | -12 | -14 | 2 | -5 | -3 | -16
Cc1cccn2c(=O)c(C(=O)NCCCN3CC(C)CC(C)C3)c(O)nc12 (centres undefined) | i | 7 | 1 | -4 | . | -4 | . | -9
O=C(Nc1cccc(Cl)c1)c1cc(-c2ccco2)on1 | i | 1 | 4 | 11 | -6 | 3 | -7 | -18
Cn1c(=O)c2c(nc(CN3CCc4ccccc4C3)n2CC(=O)c2ccccc2)n(C)c1=O | i | -11 | -1 | -9 | . | . | . | -4
O=C(NC(=S)Nc1cccc([N+](=O)[O-])c1)C1CCCCC1 | i | -6 | -9 | -7 | 1 | 24 | 7 | -20
COC(=O)[C@@]12CCCCN1[C@H](c1ccc(-c3ccc4c(c3)OCO4)c(OC)c1)[C@@H]1C(=O)N(C)C(=O)[C@@H]12 | . | -3 | -3 | -9 | . | -1 | . | -11
CCN(CC)S(=O)(=O)c1ccc(C(=O)OCCNC(=O)c2cccnc2)cc1 | i | -2 | 3 | -13 | 7 | -70 | 7 | 1

The list is partial. The share of hits here may be higher or lower than overall.
